# Source: PubChem BioAssay
# KCNQ2 inh – KCNQ2 channel blockers in CHO-K1 cells – cell-based, FluxOR thallium flux, B-score, primary screen (AID 2156); B-score at 10 µM; 20 min; stronger effect = lower value; only compounds with negative scores are shown here; some inactives read as strong as hits; O88943; actives 1.1% (n = 310,000);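 active means fluorescence ratio B-score at most minus 3 library SDs, with starting brightness B-score within 2 library SDs, cut at about -5.5 in these data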
# Target sequence (O88943 whole entry, looked up): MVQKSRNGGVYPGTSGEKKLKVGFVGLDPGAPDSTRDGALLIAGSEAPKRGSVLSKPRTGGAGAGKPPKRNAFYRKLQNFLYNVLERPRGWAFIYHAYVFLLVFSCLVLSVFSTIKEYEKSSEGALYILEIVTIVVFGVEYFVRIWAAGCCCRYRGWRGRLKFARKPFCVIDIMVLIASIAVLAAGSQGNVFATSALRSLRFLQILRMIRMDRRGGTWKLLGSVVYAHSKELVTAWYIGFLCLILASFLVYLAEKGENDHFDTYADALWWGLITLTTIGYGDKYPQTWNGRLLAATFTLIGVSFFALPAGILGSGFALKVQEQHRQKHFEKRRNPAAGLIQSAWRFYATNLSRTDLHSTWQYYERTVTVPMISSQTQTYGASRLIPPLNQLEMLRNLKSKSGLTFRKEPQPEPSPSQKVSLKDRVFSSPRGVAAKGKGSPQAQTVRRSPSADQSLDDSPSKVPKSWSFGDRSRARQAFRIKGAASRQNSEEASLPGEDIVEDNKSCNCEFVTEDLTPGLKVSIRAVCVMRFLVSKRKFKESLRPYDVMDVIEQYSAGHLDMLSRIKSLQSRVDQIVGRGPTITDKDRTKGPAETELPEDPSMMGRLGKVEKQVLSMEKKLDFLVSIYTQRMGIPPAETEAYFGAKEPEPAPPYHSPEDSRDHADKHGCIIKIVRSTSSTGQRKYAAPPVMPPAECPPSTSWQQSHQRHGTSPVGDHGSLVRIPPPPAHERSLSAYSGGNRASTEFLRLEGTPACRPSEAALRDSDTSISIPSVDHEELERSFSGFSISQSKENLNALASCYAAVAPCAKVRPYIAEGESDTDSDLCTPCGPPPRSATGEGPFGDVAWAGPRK
# KCNQ2 inh baseline – second read-out of KCNQ2 inh, no call of its own (marks repeat the call); B-score; measured here: initial fluorescence intensity artifact check;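 brightness before thallium and not channel activity; 0 = typical well and far values either way flag optical interference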
# * = called active by the depositor; i = inactive. Some of the compounds tested; count on the stated rates, not on these rows.
KCNQ2 inh | KCNQ2 inh baseline | Molecule
i | 0.15 | O=C(COc1cccc2c1CCN(Cc1ccccc1F)C2=O)N1CCOCC1
i | 1.2 | O=C(c1cccc(C(F)(F)F)c1)C1CCCN(C(=O)CCCn2cncn2)C1 (configuration not stated)
i | -0.77 | Cc1ccc2[nH]c3c(=O)n(CC(=O)NCCCN(C)Cc4ccccc4)ncc3c2c1
i | -2.3 | CN1CCCN(C(=O)Cc2c(Cl)cccc2Cl)c2nc3ccccc3nc21
i | 0.11 | Cc1ccc(-c2[nH]c3ccccc3c2SCCNC(=O)c2ccc(S(=O)(=O)N3CCOCC3)cc2)cc1
i | -0.07 | COc1ccccc1-n1c(N)c(C(=O)NCC2CCCO2)c2nc3ccccc3nc21 (configuration not stated)
i | 1.4 | Cc1cc(C)cc(N=c2c([N+](=O)[O-])nn(-c3cccc(Cl)c3)n2O)c1
i | -1.6 | CC1CCc2c(sc3nc(CSc4nnnn4C)[nH]c(=O)c23)C1 (configuration not stated)
i | -1.4 | CNc1nc(OCC(F)(F)F)nc(N2CCOCC2)n1
i | 1.1 | Cc1cccc(N2C(=O)C3CCC(c4ccccc4)CC3C2=O)c1 (configuration not stated)
i | -0.08 | COc1ccc(OC)c(C2CC(=O)C(C)C(c3cc(OC)ccc3OC)N2)c1 (configuration not stated)
i | -1.1 | COCCn1nc2cc(C(=O)NCc3cc(C(F)(F)F)cc(C(F)(F)F)c3)ccc2c1OC
i | 0.28 | COc1ccccc1C(=O)NC(=O)COC(=O)c1nc2nc(C)cc(C)n2n1
i | -1.2 | CCc1nnc(NC(=O)c2ccc(S(=O)(=O)NCC(C)C)cc2)s1
i | 1.6 | CC(=O)N1N=C(c2ccccc2)CC1c1cn(Cc2ccccc2)c2ccccc12 (configuration not stated)
i | -1.4 | C/C(=N\NC(=O)c1ccco1)c1ccc(-c2ccccc2)cc1
i | 2.1 | COc1ccc(C)cc1NC(=O)CCS(=O)(=O)c1ccc2c(c1)oc(=O)n2C
i | 2.8 | N#Cc1cc([N+](=O)[O-])ccc1NCCCn1ccnc1
i | 1.1 | COc1ccc(-c2cc(-c3ccccc3)no2)cc1
i | 2.5 | O=C(CC(c1ccccc1)C1CCCCC1=O)c1ccco1 (configuration not stated)
i | -0.16 | CCN(CC)c1ccc(/C=C(\C#N)C(=O)NCc2ccccc2)cc1
i | 0.34 | COCCNC(=O)c1cc(-c2ccccc2OC)on1
i | 1.1 | CCC(=O)Nc1ccc(S(=O)(=O)Nc2cc(C)on2)cc1
i | 0.14 | O=C(CSc1nc(-c2ccc(Cl)cc2)cs1)Nc1cccc([N+](=O)[O-])c1
i | 3.4 | Cc1ccc2oc(-c3ccccc3C(=O)O)cc(=O)c2c1
i | -0.59 | CC(=O)OCCNC(=O)Cn1cnc2c1c(=O)n(C)c(=O)n2C
i | 0.06 | COc1ccc(C2/C(=C(/O)c3ccc(F)cc3)C(=O)C(=O)N2c2ccccn2)cc1OC (configuration not stated)
i | -0.01 | Cc1cccc(CN2CCc3c([nH]c4ccccc34)C2C(C)(C)C)n1 (configuration not stated)
i | 1.6 | COC(=O)CSc1nnc(CCc2ccccc2)n1C
i | 0.64 | O=C(Nc1nnc(C2CCCC2)s1)C1CCN(S(=O)(=O)c2ccc(Cl)cc2)CC1

# Next part; it opens with the 6 that closed the last part.
KCNQ2 inh | KCNQ2 inh baseline | Molecule
i | 3.4 | Cc1ccc2oc(-c3ccccc3C(=O)O)cc(=O)c2c1
i | -0.59 | CC(=O)OCCNC(=O)Cn1cnc2c1c(=O)n(C)c(=O)n2C
i | 0.06 | COc1ccc(C2/C(=C(/O)c3ccc(F)cc3)C(=O)C(=O)N2c2ccccn2)cc1OC (configuration not stated)
i | -0.01 | Cc1cccc(CN2CCc3c([nH]c4ccccc34)C2C(C)(C)C)n1 (configuration not stated)
i | 1.6 | COC(=O)CSc1nnc(CCc2ccccc2)n1C
i | 0.64 | O=C(Nc1nnc(C2CCCC2)s1)C1CCN(S(=O)(=O)c2ccc(Cl)cc2)CC1
i | -0.16 | COC(=O)C1=C(C)NC(=S)NC1c1ccc(OC(=O)c2ccco2)cc1 (configuration not stated)
i | -0.09 | O=C(NCC(c1cccs1)N1CCOCC1)c1ccc(Cl)c([N+](=O)[O-])c1 (configuration not stated)
-8.9* | -0.87* | CCOC(=O)CNc1c(-c2ccc(OC)cc2)nc2ccc(Cl)cn12
i | 1.4 | O=C(NCCN1CCOCC1)N1c2ccccc2Sc2ccccc21
i | 0.17 | Cc1oc(-c2ccc(Cl)cc2)[n+]([O-])c1C
i | 0.03 | Cc1[nH][nH]c(=O)c1C(c1c(C)[nH][nH]c1=O)c1cn(Cc2ccc(Cl)c(Cl)c2)c2ccccc12
i | 1.6 | COCC(=O)N1CCC(Oc2ccc(C(=O)NCc3cc(C(C)C)no3)cc2)CC1
i | 0.16 | COc1nccc(C(F)(F)F)c1C(=O)NC(=O)Nc1ccccc1
i | -0.49 | Cc1cc(C(=O)N/N=C\C(Br)=C\c2ccccc2)c(C)o1
-11* | -1.1* | Cc1csc2nc(CSc3ccc(Cl)cc3)cn12
i | 2.1 | N#CCCn1nc(-c2ccc(Cl)cc2)cc1Nc1ccccc1NC(=O)C(F)(F)F
i | 0.28 | OC(c1cccc(Cl)c1)c1nccc2ccccc12 (configuration not stated)
i | 0.07 | Cc1cc2ccccn2c1C(=O)c1ccc(S(=O)(=O)N(C)C)cc1
i | 2 | Cc1ccc(S(=O)(=O)NCC(=O)OCC(=O)c2ccc(Br)s2)cc1
i | 0.07 | Cn1cnnc1SCC(=O)c1cc2ccccc2o1
i | -0.02 | COc1ccc(C(=O)NCc2cn3ccsc3n2)cc1OC
i | -0.39 | COc1ccccc1S(=O)(=O)CC(O)COc1ccccc1Cl (configuration not stated)
i | -0.55 | CCCCC(=O)/C=C/n1c(=S)oc2ccccc21
i | 0.01 | CC(=O)Nc1ccc(NC(=O)c2cccc3c2-c2ccccc2C3=O)cc1
i | 0.03 | O=S(=O)(Cc1ccccc1)Nc1ccc(F)cc1
i | 0.42 | Clc1ccccc1-c1nn2c(-c3ccccn3)nnc2s1
i | 1.9 | COC(=O)c1ccccc1NC1=C/C(=N\S(=O)(=O)c2cccs2)c2ccccc2C1=O
i | -0.85 | COC(=O)c1ccccc1OCCCN(C)C
i | 1 | Cc1cc(C(C)(C)C)cc(C)c1S(=O)(=O)N1CC(=O)Nc2ccccc21
i | 0.93 | O=C(NCC(c1cccnc1)N1CCN(c2ccccc2F)CC1)c1cccc(Cl)c1 (configuration not stated)
i | -1.6 | COc1ccc2c(CC(=O)OCC(=O)NC(N)=O)coc2c1
i | -0.36 | COc1cc(C)nc(Oc2ccc(OCCOc3ccc(C)cc3)nn2)n1
i | -0.35 | CCOC(=O)CC(NC(=O)C1c2ccccc2Oc2ccccc21)c1ccccc1Cl (configuration not stated)
i | -1.3 | C=CCNC(=O)CC1C(=O)NCCN1Cc1ccc(-c2ccccc2)cc1 (configuration not stated)
i | 0.16 | COc1ccccc1/C=C/C(=O)NCc1ccccn1
i | 0.35 | COc1ccc(C(=O)NCC(=O)OCC(=O)c2ccc(Cl)cc2)cc1OC
i | 0.04 | CCc1cccc2c(C(=O)C(F)(F)F)cn(CC(=O)N3CCOCC3)c12
i | -2.4 | CCCSc1cc(NCCOC(=O)CCC)c([N+](=O)[O-])c2nonc12
i | -0.12 | Cc1nc2ccccc2c(=O)n1/N=C/c1cn[nH]c1-c1ccccc1
i | 0.17 | Cc1ccc(NC(=O)CN2CCc3ccccc3C2)cc1F
i | 0.15 | CCOC(=O)N1CCN(C(=O)c2ccc3c(c2)sc2nc(-c4ccccc4)cn23)CC1
i | 0.08 | CNC(=O)c1c(C)nn(-c2ccc(F)c(Cl)c2)c1-c1cc(C)on1
i | 2.3 | Cc1ccc(NC(=O)C(=O)NCc2ccc(/C=C(/C#N)C(=O)NCc3cccnc3)o2)cc1C
i | 0.04 | COCC(=O)Nc1ccc(S(=O)(=O)Nc2cc(C)nc(C)n2)cc1
i | 1 | CC(C)CC(=O)Nc1cc([N+](=O)[O-])ccc1Cl
i | -0.02 | O=C(CC1OC(=O)c2ccccc21)NC1CCCCC1 (configuration not stated)
i | 2.4 | COc1cccc(/C=N/n2c(COc3ccccc3)n[nH]c2=S)c1
i | 0.61 | CC[n+]1c(/C=C2\C=C(C)CC(C)C2)sc2ccccc21 (configuration not stated)
i | 0.09 | Cc1ccc(C(=O)N2CCCC(CCC(=O)NCc3ccccc3F)C2)cn1 (configuration not stated)
i | -2.4 | O=C(CCC(=O)N1CCOc2ccc(Cl)cc21)NCCCN1CCC(Cc2ccccc2)CC1
i | 0.18 | CCOc1ccc(NC(=O)CN(C)C(=O)c2ccc3c(c2)C(=O)N(CCC(C)C)C3=O)cc1OCC
i | 2.1 | Cc1ccc(C)c(S(=O)(=O)N2CCCOC2CNC(=O)C(=O)NC2CCCCC2)c1 (configuration not stated)
i | -0.11 | O=C(NCCC1CCCCN1S(=O)(=O)c1ccc(Cl)cc1)C(=O)NCCN1CCOCC1 (configuration not stated)
i | 0.64 | O=C(c1cc2c(=O)oc3ccccc3c2s1)N1CCOCC1
i | 0.37 | Cc1ccc(-n2c(Cn3nc(C(F)(F)F)cc3C)n[nH]c2=S)cc1
i | -1.5 | CCN(CC)S(=O)(=O)c1cccc(NC(=O)COc2ccc(Cl)cc2Br)c1
i | -0.87 | CCn1c(Cc2cccs2)nnc1SCC(=O)NC(C)(C)C
i | 0.59 | CCOC(=O)N1CCN(S(=O)(=O)c2ccc(C(=O)N(CCN(C)C)c3nc4c(C)cccc4s3)cc2)CC1
i | -0.81 | CCOC(=O)c1ccc(-n2nc(C)cc2C)cc1
i | 0.74 | CC(OC(=O)Cc1coc2ccc3ccccc3c12)C(=O)Nc1ncc(Cl)cc1Cl (configuration not stated)
i | 0.1 | COC1CCN(C(=O)c2ccc3oc(Cc4ccc(Cl)cc4)nc3c2)CC1
i | -2.6 | COc1cccc(C(=O)NC(=S)Nc2ccc([N+](=O)[O-])cc2C)c1
i | 0.13 | O=C(Nc1cccc(S(=O)(=O)N2CCOCC2)c1)c1cnn2c(C(F)F)cc(-c3ccccc3)nc12
-5.6* | -0.02* | CN(Cc1ccccc1)C(=O)COc1ccc(C(C)(C)C)cc1
i | -1.3 | O=C(O)C1CCCCC1C(=O)Nc1cnn(Cc2ccccc2)c1 (configuration not stated)

# Reprinted at random: 2 compounds from above
KCNQ2 inh | KCNQ2 inh baseline | Molecule
i | 0.14 | O=C(CSc1nc(-c2ccc(Cl)cc2)cs1)Nc1cccc([N+](=O)[O-])c1
i | 2.3 | Cc1ccc(NC(=O)C(=O)NCc2ccc(/C=C(/C#N)C(=O)NCc3cccnc3)o2)cc1C

# (list continues)
KCNQ2 inh | KCNQ2 inh baseline | Molecule
i | 0.02 | CCOc1ccc(S(=O)(=O)NCC2CCCO2)c2ccccc12 (configuration not stated)
i | -0.62 | COc1ccc(C(NC(=O)c2cccc(F)c2)c2ccccc2)cc1 (configuration not stated)
i | -0.96 | N#CC1=C(Nc2ccccc2)SC=C(c2ccc(F)cc2)N=C1N1CCOCC1
i | 0.44 | Cc1ccc(C(=O)NCc2ccc3c(c2)OCO3)o1
i | 0.71 | COc1ccccc1CC(=O)Nc1ccc(-c2noc(COc3cccc(C)c3C)n2)cc1
i | 0.91 | O=C(NCc1cn2ccsc2n1)Nc1cccc(Cl)c1
i | 1.6 | Cc1oc2ccc(O)cc2c1C(=O)OC(C)C
i | -0.75 | COc1ccc(NC(=O)c2ccc(OC(F)F)cc2)cc1Cl
-8.1* | -0.79* | C=CCn1c(SCc2csc(C)n2)nc2sc3c(c2c1=O)CCCCC3
i | -0.41 | COc1cc(NC(=O)C2=COCCO2)c(OC)cc1Cl
i | -1.2 | O=C(NCc1ccccc1)c1cccc(NC(=O)c2ccco2)c1
i | 0.25 | O=C(c1ccccc1)N(CCN1CCOCC1)C1(C(=O)Nc2ccccc2)CCCCC1
i | -1.9 | Cc1nc(-c2ccccc2OC(F)(F)F)[nH]c(=O)c1Cl
i | -1.9 | CC(=O)OCCNc1cc(SCc2ccco2)c2nonc2c1[N+](=O)[O-]
i | 0.21 | CN(C(=O)CC(NC(=O)c1ccccc1)(c1ccccc1)c1ccccc1)c1ccccc1
i | 0.49 | Cc1cccc(C)c1-n1c(C)cc(/C=C2\NC(=O)NC2=O)c1C
i | -1.1 | COc1ccccc1Oc1c(C)oc2c(CN3CCOCC3)c(O)ccc2c1=O
i | 0.99 | CC(C)NC(=O)C(=O)NCCN1CCN(S(=O)(=O)c2ccc(Cl)cc2)CC1
i | 0.35 | COC(=O)c1cc(Br)c(=O)n(Cc2ccncc2)c1
i | 0.63 | COCC(=O)N/N=C/c1ccc(Sc2nc3ccccc3s2)o1
i | 0.16 | COc1ccc(C2N(C(=O)c3ccccc3)CCN2C(=O)c2ccc(C)cc2)cc1 (configuration not stated)
i | -0.02 | Cc1c(NC(=O)C(C)Sc2ccccc2)c(=O)n(-c2ccccc2)n1C (configuration not stated)
i | -0.05 | O=C(NCCCO)C(=O)NCCc1ccc(Cl)cc1
i | -1.9 | Cc1ccc(NC(=O)C(C)N2C(=O)C3CC=C(Cl)CC3C2=O)cc1 (configuration not stated)
i | -1.1 | CCN(CC)S(=O)(=O)c1cccc(C(=O)Nc2cc(C)nn2-c2ccccc2)c1
i | -0.24 | CN1CCN(C(=O)Cn2c(C(F)(F)F)nc3ccccc32)CC1
-5.8* | -2.5* | CCOc1ccccc1-c1ccc(C(=O)NCc2ccccc2)o1
i | 0.85 | Cc1nc2ccccc2cc1C(=O)N/N=C/c1ccc([N+](=O)[O-])cc1
i | 100 | CCN1C(=O)c2cccc3c(N)ccc(c23)C1=O
i | -1 | O=C(Nc1nc2ccccc2n1CCN1CCCCC1)c1ccco1
i | 2.1 | CCCC(=O)Nc1ccc2oc(-c3cncc(Br)c3)nc2c1

# Another view of some results above:
> O=C(NCc1ccccc1)c1cccc(NC(=O)c2ccco2)c1
  KCNQ2 inh: i	KCNQ2 inh baseline: -1.2
> O=C(c1ccccc1)N(CCN1CCOCC1)C1(C(=O)Nc2ccccc2)CCCCC1
  KCNQ2 inh: i	KCNQ2 inh baseline: 0.25
> Cc1nc(-c2ccccc2OC(F)(F)F)[nH]c(=O)c1Cl
  KCNQ2 inh: i	KCNQ2 inh baseline: -1.9
